Screening data from PubChem.
TRPML1 inh: inhibitors of human TRPML1 channel | Q9GZU1 | TRPML1-inducible cells, Ca2+ dye fluorescence, FDSS; stronger effect = lower value; inhibition of EC80 agonist-evoked calcium signal | activity change, negative = inhibition, % (concentration not given with the values) | 0.02% of 390,000 active; in the data active means activity change below about -50%; inconclusive means about -30% to -50%; inactive means above about -30%;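 also: stimulus is agonist 54-4 at its EC80 concentration; % is scaled to controls: 0 for no effect and ±100 for the full control effect; compound concentration not given in the record; the text of the record puts the active cut at -80%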
Target sequence (Q9GZU1 whole entry, looked up): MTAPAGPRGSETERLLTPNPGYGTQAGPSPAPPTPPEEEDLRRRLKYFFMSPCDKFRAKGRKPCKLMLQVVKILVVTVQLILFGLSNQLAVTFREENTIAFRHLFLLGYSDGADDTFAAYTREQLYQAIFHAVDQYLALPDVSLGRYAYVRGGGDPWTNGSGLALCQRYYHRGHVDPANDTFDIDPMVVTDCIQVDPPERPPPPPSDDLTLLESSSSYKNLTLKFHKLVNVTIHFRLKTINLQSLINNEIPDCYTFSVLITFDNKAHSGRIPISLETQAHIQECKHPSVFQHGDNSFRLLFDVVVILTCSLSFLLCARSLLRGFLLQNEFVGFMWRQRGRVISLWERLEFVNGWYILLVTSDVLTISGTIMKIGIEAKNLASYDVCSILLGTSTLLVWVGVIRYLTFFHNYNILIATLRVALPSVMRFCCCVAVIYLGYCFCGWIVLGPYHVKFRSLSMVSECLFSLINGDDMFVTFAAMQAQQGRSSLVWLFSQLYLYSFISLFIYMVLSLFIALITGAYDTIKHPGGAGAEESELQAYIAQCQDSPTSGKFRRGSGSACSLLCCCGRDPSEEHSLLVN
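TRPML1-DL cells, Tet-induced overnight (~16 h, 37 °C) at 1,500 cells/well, were loaded with Ca8 no-wash dye plus quencher for 45-90 min at room temperature. Compounds were pinned during FDSS kinetic reading; agonist 54-4 at EC80 (4 uM final) then added.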
ClpP mod: qHTS Assay for Activators of ClpP; ATP-dependent Clp protease proteolytic subunit (Bacillus subtilis (strain 168)), P80244; purified B. subtilis ClpP, FRET peptide cleavage, 20 min; Potency, µM (top dose mostly 57.5 µM), for the others: at the highest dose activity change, negative = active; 1.9% of 340,000 active; AID 651965, 2013; active = well fitted falling curve with a large enough effect; inconclusive = small, poorly fitted or top-dose-only effect; inactive = no such curve, though single readings can be large or run the other way; also: potency is read from the fitted curve at half-maximal effect; the source files actives as falling curves though it sought activators and does not explain the sign; nearly all actives have a fitted effect of over 65% in size; many hits overshoot -100%
Target sequence (P80244 whole entry, looked up): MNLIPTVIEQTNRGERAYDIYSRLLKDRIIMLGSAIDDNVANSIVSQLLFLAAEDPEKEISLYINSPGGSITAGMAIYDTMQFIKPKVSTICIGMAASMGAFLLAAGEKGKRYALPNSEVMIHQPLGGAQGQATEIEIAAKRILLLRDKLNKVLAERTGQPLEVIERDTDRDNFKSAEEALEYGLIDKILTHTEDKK
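ClpP 10 microg/mL final, pH 8 Tris/KCl buffer with BSA, glycerol, Tween-20; compound pinned in; FRET-FV substrate; RT 20 min; Ex320/Em430; ΔFRET vs ADEP 5.8 microM, DMSO, no enzyme.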
Starred values were filed as active, the others as inactive; u = inconclusive; & = joins results of further samples.

The opening 7 records (preview)
SMILES | TRPML1 inh | ClpP mod
CCOC(=O)c1cc(-c2ccccc2)n(CCC(=O)NCCc2ccc(OC)c(OC)c2)c1C | 20 | -0.5%
Cc1nn(C)c(C)c1S(=O)(=O)N(CC(=O)N1CCN(c2ccccc2)CC1)c1ccc(C(C)C)cc1 | -10 | 0.4%
COc1ccc(Cl)cc1NC(=O)CN(C)S(=O)(=O)c1ccc(Br)s1 | 20 | -1.8%
NC1=NC(c2cccc(Cl)c2)n2c(nc3ccccc32)N1 (stereo not drawn) | 19 | -2.8%
COc1ccc(NC(=O)c2oc3c(c2C)-c2nn(Cc4c(F)cccc4Cl)cc2CC3)c(OC)c1 | 44 | -16%
Cc1cc(Br)cc(C)c1OCC(=O)Nc1ccc(S(=O)(=O)Nc2ncccn2)cc1 | -5 | -3.0%
COc1ccc(NC(=O)c2cnc(Nc3ccc(C)c(Cl)c3)c3ccccc23)c(OC)c1 | -10 | u

Results (from the top)
SMILES | TRPML1 inh | ClpP mod
CCOC(=O)c1cc(-c2ccccc2)n(CCC(=O)NCCc2ccc(OC)c(OC)c2)c1C | 20 | -0.5%
Cc1nn(C)c(C)c1S(=O)(=O)N(CC(=O)N1CCN(c2ccccc2)CC1)c1ccc(C(C)C)cc1 | -10 | 0.4%
COc1ccc(Cl)cc1NC(=O)CN(C)S(=O)(=O)c1ccc(Br)s1 | 20 | -1.8%
NC1=NC(c2cccc(Cl)c2)n2c(nc3ccccc32)N1 (stereo not drawn) | 19 | -2.8%
COc1ccc(NC(=O)c2oc3c(c2C)-c2nn(Cc4c(F)cccc4Cl)cc2CC3)c(OC)c1 | 44 | -16%
Cc1cc(Br)cc(C)c1OCC(=O)Nc1ccc(S(=O)(=O)Nc2ncccn2)cc1 | -5 | -3.0%
COc1ccc(NC(=O)c2cnc(Nc3ccc(C)c(Cl)c3)c3ccccc23)c(OC)c1 | -10 | u
Cc1cccc(NC(=O)NC2COc3ccccc3C2)c1C (stereo not drawn) | -8 | -0.5%
CC(C)COC(=O)N1CCCCC1c1cc(C(=O)NCc2ccc(F)cc2)no1 (stereo not drawn) | -8 | 0.3%
Cc1cccc(C(=O)N2CCC(N3CCN(Cc4ccc(F)cc4)C(=O)C3=O)CC2)c1 | -14 | -3.7%
Cc1ccc(Cl)cc1N1CCN(CCNC(=O)Nc2ccccc2Cl)CC1 | -9 | 1.4%
CC(=O)Nc1ccc(NC(=O)C2(c3cccs3)CCOCC2)cc1 | 14 | 0.2%
Cc1ccc(NC(=O)CSc2nc3ccc(NC(=O)COc4ccc(C)cc4)cc3s2)cc1 | 1 | -2.0%
O=C(CSc1nc2c(c(=O)[nH]1)CCC2)Nc1cc(C(F)(F)F)ccc1Cl | 6 | 0.9%
COc1cccc(Cn2c(=O)n(Cc3ccco3)c(=O)c3oc4ccccc4c32)c1 | 59 | 13%
COc1cc(Cl)c(C)cc1NC(=O)c1sc2nc3n(c(=O)c2c1C)CCCCC3 | -10 | -11%
COc1cc(NC(=O)c2c(C)oc3ncnc(N4CCCCC4)c23)cc(OC)c1 | 5 | -3.3%
CCc1ccc(-n2c(SCc3ccccc3F)nc3[nH]ncc3c2=O)cc1 | 48 | 2.2%
CCc1ccc([C@@H]2C[C@H]3[C@@H](CN2S(=O)(=O)c2ccc(C)cc2)C(=O)C[C@@H](c2ccc(Cl)cc2)N3S(=O)(=O)c2ccc(C)cc2)cc1 | -1 | -0.4%
COc1ccc(-c2c(C)nn3c4c(cnc23)C(=O)CC(c2ccc(C)cc2)C4)cc1 (stereo not drawn) | 17 | -1.6%
CCOc1ccc(-c2nnc(SCC(=O)NCc3ccccc3Cl)o2)cc1 | 11 | -1.5%
O=C(Nc1ccc(F)cc1Cl)n1ncc2cc(Cl)ccc21 | -13 | -0.1%
COc1ccc(Cn2c(=O)c3ccccc3n3c(-c4cccc(OC)c4OC)nnc23)cc1 | 0 | -16%
Cc1ccc(Cn2c(C)c3cnn(CC(=O)O)c(=O)c3c2C)cc1 | -11 | u
COc1ccccc1NC(=O)CSC1=Nc2ccccc2C2=NC(CC(=O)NCCc3ccccc3)C(=O)N12 (stereo not drawn) | -5 | -8.8%
CCN1CCc2nc3sc(C(=O)Nc4ccccc4OC(F)(F)F)c(N)c3cc2C1 | 0 | -10%
CCCSc1ncc(Cl)c(C(=O)Nc2sc3c(c2C(=O)OC)CCCC3)n1 | 16 | 0.4%&-9.3%
Cc1ccc(-n2nc(C)c3c(C)cc(=O)n(CC(=O)Nc4ccc(Br)cc4F)c32)cc1 | 13 | -0.9%
O=C(NC(c1ccc2ccccc2n1)c1cccs1)C1CCN(Cc2cccc(C(F)(F)F)c2)CC1 (stereo not drawn) | -13 | -5.1%
O=C(Cn1c(=O)oc2cc(Cl)ccc21)Nc1cccc(C(F)(F)F)c1 | 11 | -0.7%
COc1cc2c(cc1OC)C(COc1ccccc1OC)N(C(=O)COc1ccc(Cl)cc1)CC2 (stereo not drawn) | 17 | -3.2%
CC1Cc2cc(S(=O)(=O)NCCc3ccccc3)ccc2N1C(=O)C1CCC1 (stereo not drawn) | 20 | -7.1%
O=C(Nc1ccc(F)cc1F)c1ccc(-c2ccccc2)s1 | -1 | 5.0%
O=c1cc(-c2ccccc2)nc(SCc2nc(-c3ccc(C(F)(F)F)cc3)no2)[nH]1 | 3 | -1.5%
CCC(C(=O)Nc1cc(Cl)ccc1OC)n1nc(-c2ccccc2)ccc1=O (stereo not drawn) | -22 | 0.4%
CCOCCc1nn2c(=O)cc(COC(=O)c3ccc(NC(=O)c4ccc(F)cc4)cc3)nc2s1 | -3 | -8.2%
COc1ccc(/C=C(\C#N)c2nc(-c3ccc(Cl)c(Cl)c3)cs2)cc1OC | 10 | -2.5%
Cc1ccc(NC(=O)CSc2nc(-c3cccs3)cc(C(F)(F)F)n2)cc1C | 14 | 77%
CCOc1ccccc1C(=O)Nc1ccc(S(=O)(=O)Nc2onc(C)c2C)cc1 | 13 | -4.5%
O=C(NCCc1ccccc1)c1c[nH]c2ccc(S(=O)(=O)Nc3ccc(F)cc3F)cc2c1=O | 20 | -21%
O=C(Cc1ccccc1)Nc1nnc2n1CCS2 | 4 | -0.4%
CCn1cc2nc(SCc3ccccc3Cl)n(CCc3ccccc3)c(=O)c2n1 | -16 | -1.1%
CCOC(=O)C1CCN(C(=O)c2cnn(-c3ccc(F)cc3)c2-n2cccc2)CC1 | 1 | -4.4%
CCOc1ccc(-c2cc(CCCC(=O)NCCc3ccc(OCC)c(OCC)c3)no2)cc1 | -14 | -1.9%
COc1cccc(CNC(=O)c2cc3c(s2)-c2c(C)cccc2OC3)c1 | -1 | 4.1%
Clc1cccc(Nc2ncnc3c2nc2n3CCCCC2)c1 | 17 | -9.6%
CCOC(=O)c1ccccc1NC(=O)Nc1cc2c(cc1N1CCCCC1)n(C)c(=O)n2C | -17 | -6.5%
O=C(Cn1c(=O)n(CCCS(=O)(=O)C2CCCCC2)c(=O)c2ccccc21)Nc1ccccc1F | -12 | -8.9%
O=C(C1CCC(CNS(=O)(=O)c2ccc(Br)s2)CC1)N1CCN(c2ccccc2Cl)CC1 (stereo not drawn) | -14 | 0.8%
COc1ccc(N(C(=O)c2cccc(C)c2)S(=O)(=O)c2ccc(C)cc2)cc1 | 5 | 0.7%
O=C(Nc1ccc(F)c(F)c1)c1cc(S(=O)(=O)NC2CCCCCC2)ccc1F | 50 | -0.5%
COc1cc(-c2noc(-c3ccc(N4CCOCC4)c([N+](=O)[O-])c3)n2)cc(OC)c1OC | 15 | 0.4%
CCc1ccc(S(=O)(=O)c2cn(C)c3cc(N4CCCC4)c(F)cc3c2=O)cc1 | 3 | -29%
CN(C)c1ccc(CNc2nc(-c3ccco3)nn2S(=O)(=O)c2ccc(Cl)cc2)cc1 | -1 | 0.8%
Cc1ccc(C)c(NC(=O)Cn2ncc3c([nH]c4ccccc43)c2=O)c1 | 29 | -4.2%
Cc1cc(F)ccc1NC1(c2ccccc2)C(=O)c2ccccc2C1=O | 2 | -2.1%
N#Cc1ccccc1Cn1cnc2nc3c(cc2c1=O)CCCC3 | -16 | -5.2%
COc1cc2c(cc1OC)C(COc1ccc3c(C)cc(=O)oc3c1)N(C(=O)c1cccc(OC)c1OC)CC2 (stereo not drawn) | 1 | 56%
CCCCN(CCCC)CCNC(=O)Cn1nc(CC)n2c(cc3sccc32)c1=O | 29 | -1.1%
CCCCc1ccc(-n2nc3cc(Cl)c(NC(=O)c4ccc(OC)cc4)cc3n2)cc1 | 7 | -0.2%

Later entries:
SMILES | TRPML1 inh | ClpP mod
CN(C)c1ccc(CNC(=O)C2CCN(S(=O)(=O)c3ccc4c(ccn4C)c3)CC2)cc1 | 1 | -12%
CS(=O)(=O)n1c2ccccc2c(=O)n1-c1ccccc1CCl | -11 | -4.8%
CCOc1ccc(-c2nc(SCC(=O)c3ccccc3)n[nH]2)cc1 | 1 | 0.4%
COc1ccc(C(=O)Nc2c(C(=O)c3ccc(F)cc3)oc3ccccc23)cc1 | -4 | 1.0%
Cn1c(=O)c2c(c3ccccc31)OC(=O)CC2c1ccc(C(F)(F)F)cc1 (stereo not drawn) | 24 | 4.4%
O=C(NCc1ccc2c(c1)OCO2)c1[nH]c(C(F)(F)F)nc1-c1ccccc1 | 13 | -2.8%
Cc1ccc(OC(C)C(=O)NCC2(N3CCOCC3)CCCCC2)cc1C (stereo not drawn) | -15 | -1.3%
CCOC(=O)Cc1ccc(NC(=O)NCc2ccc3c(c2)CCN3C(=O)CC)cc1 | 39 | 2.8%
CCCCN(CCCNC(=O)CN1N=C(c2ccccc2)CCC1=O)c1ccccc1 | -9 | -2.3%
CCCN1CCN(CCNC(=O)Nc2ccc(OC)cc2OC)CC1 | -17 | 1.0%
CCc1cccc(C)c1NC(=O)Cn1ccn(-c2cccc(OC)c2)c(=O)c1=O | -7 | 0.7%
COc1cccc(C(=O)NCC(c2ccc(N(C)C)cc2)N2CCc3ccccc32)c1OC (stereo not drawn) | -4 | -26%
Cn1c(=O)n(C/C=C/c2ccccc2)c(=O)c2c1nc1n2CCN1c1ccc(F)cc1 | -3 | -6.2%
CCOC(=O)c1cc(-c2ccccc2)n(CC(=O)NCc2ccccc2)c1C | u | 1.5%
COC(=O)c1ccc(NC(=O)CSc2n[nH]c(-c3ccccc3)n2)cc1 | 9 | 1.5%
O=C1C(=O)N(C2CCN(C(=O)c3ccc(Cl)cc3)CC2)CCN1Cc1ccc(F)cc1 | -22 | 1.9%
O=C(NCCc1ccccc1)c1ccc(CS(=O)(=O)Cc2ccccc2Cl)o1 | -11 | 0.2%
CN1OC[C@@H]2CN(C(=O)CCc3ccccc3)[C@H](c3ccc(N4CCCCC4)cc3)C[C@@H]21 | 47 | -3.3%
CCCC(=O)Nc1nnc(SCc2cc(=O)c3cc(C)ccc3[nH]2)s1 | 1 | -0.8%
Cc1cc2oc(=O)c(CC(=O)O)c(C)c2c2occ(-c3ccccc3)c12 | -3 | 32µM*
COc1ccc(N2C(=O)CSC23C(=O)N(CC(=O)NCCc2ccccc2)c2ccccc23)cc1 (stereo not drawn) | 22 | -0.7%
COc1ccc(NC(=O)c2sc3nc(C)c(C(=O)Nc4ccc(C)cc4C)c(-c4ccc(Cl)cc4)c3c2N)cc1 | 15 | -0.4%
Cc1ccc(C)c(CN2C(=O)c3ccccc3S(=O)c3ccc(C(=O)N4CCN(c5ccccc5F)CC4)cc32)c1 (stereo not drawn) | -5 | -1.6%
Cc1cc(F)ccc1NC(=O)C1CCC(CNS(=O)(=O)c2ccc3c(c2)CCCC(=O)N3)CC1 (stereo not drawn) | 4 | 2.1%
COc1ccc(-c2cc(C(=O)NCCc3ccc(OC)c(OC)c3)c3c(-c4ccc(F)cc4)[nH]nc3n2)cc1 | -13 | -9.3%
O=C(Nc1ccc(F)c(Cl)c1)C1CCN(c2ncccn2)CC1 | -1 | -8.9%
NC(=O)CSc1ncc2c(n1)-c1ccccc1N(Cc1ccc(F)cc1)S2(=O)=O | 4 | u
COC(=O)Cc1c(C)nc2nc(NCc3ccc(Br)cc3)[nH]n2c1=O | -7 | -16%
Cc1ccc(Cn2c(=O)c3cccnc3n(Cc3ccc(C)cc3)c2=O)cc1 | 19 | -6.8%
CCOc1ccc(NC(=O)Cn2cc(C(=O)c3ccc(C)c(C)c3)c(=O)c3cc(F)ccc32)cc1 | -15 | -3.7%
COc1ccc(C)cc1NS(=O)(=O)c1ccc2[nH]c(=O)c(=O)[nH]c2c1 | -2 | -3.1%
Cc1c(Cl)cccc1-n1ncc(C(=O)N2CCC(C)CC2)c1C1CCN(C(=O)OC(C)(C)C)CC1 | -1 | 1.1%
CCc1nc2c(OCCC3CCCCC3)cccn2c1N(C)C(=O)c1ccncc1 | 27 | -1.5%
Cc1ccccc1C(=O)NC1(C(F)(F)F)N=C(c2ccccc2)N(C2CCCCC2)C1=O (stereo not drawn) | -1 | 1.8%

Complete entries, quoted from the list. Order of values: TRPML1 inh	ClpP mod
`CCOc1ccccc1C(=O)Nc1ccc(S(=O)(=O)Nc2onc(C)c2C)cc1` as listed: 13	-4.5%
`COc1ccc(Cl)cc1NC(=O)CN(C)S(=O)(=O)c1ccc(Br)s1` as listed: 20	-1.8%
`Cc1ccc(Cl)cc1N1CCN(CCNC(=O)Nc2ccccc2Cl)CC1` as listed: -9	1.4%

Only part of the results is shown; count on the stated rates, not on these rows.
